# GIRK2 activ: GIRK2 channel activation. HEK293-GIRK2 thallium flux, Thallos fluorescence. P48051. calls only for hits at 25 µM. 0.05% of 63,000 active. AID 1259325;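 active = among the strongest 0.2% of first-round signals and kept after retests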;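 also: first round at about 10 µM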
# Target sequence (P48051 whole entry, looked up): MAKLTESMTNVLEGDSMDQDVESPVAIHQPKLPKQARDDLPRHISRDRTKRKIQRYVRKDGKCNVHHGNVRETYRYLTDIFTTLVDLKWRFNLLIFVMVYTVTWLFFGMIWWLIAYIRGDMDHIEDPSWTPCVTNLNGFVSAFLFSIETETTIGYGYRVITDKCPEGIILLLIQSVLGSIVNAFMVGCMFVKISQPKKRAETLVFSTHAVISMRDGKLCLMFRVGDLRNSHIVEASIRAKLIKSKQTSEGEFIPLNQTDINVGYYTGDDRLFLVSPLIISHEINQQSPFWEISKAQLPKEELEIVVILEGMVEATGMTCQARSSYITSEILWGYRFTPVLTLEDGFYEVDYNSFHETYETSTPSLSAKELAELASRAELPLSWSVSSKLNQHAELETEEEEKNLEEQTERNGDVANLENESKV
# Calls only; i = inactive.
SMILES,GIRK2 activ
O=C(Nc1nc(C(=O)N2CCN(c3cccc(Cl)c3Cl)CC2)co1)c1ccccc1,i
Cc1ccc(CNC(=O)CSc2nccn(-c3ccc(F)cc3)c2=O)cc1,i
COc1cccc(N2C(=O)/C(=C/c3cccc(O)c3)SC2=S)c1,i
CCCC(=O)NCCCS(=O)(=O)N1CCN(c2ccccc2)CC1,i
O=S(=O)(/C=C/c1ccccc1)N1C2CCCC1COC2,i
CC1CCN(CC(O)COc2cccc3ccccc23)CC1 (configuration not stated),i
CCn1c(=O)c2ccccc2n(Cc2nc(-c3ccccc3OC)no2)c1=O,i
COc1ccc(CCNc2nccn(-c3ccccc3OC)c2=O)cc1OC,i
O=C(NC1CCN(C(=O)c2cc(-c3ccccc3)n[nH]2)CC1)c1ccc2c(c1)OCO2,i
COc1ncccc1C(=O)N1CCC(C(=O)Nc2cc(C)on2)CC1,i
CCCCCCn1c(NCCO)nc2c1c(=O)n(C)c(=O)n2C,i
O=C(NCCCn1ccnc1)c1csc2nc(-c3ccc(F)cc3)cn12,i
O=c1[nH]c2ccccc2nc1-c1cc(Br)ccc1NS(=O)(=O)c1ccccc1,i
CCCCn1c(SCC(=O)Nc2ccccc2Cl)nc2c(sc3ncccc32)c1=O,i
COc1cccc(C(=O)N2CC3CC2C(=O)O3)c1OC (configuration not stated),i

# Next part, overlapping the part above by 2 compounds.
SMILES,GIRK2 activ
CCCCn1c(SCC(=O)Nc2ccccc2Cl)nc2c(sc3ncccc32)c1=O,i
COc1cccc(C(=O)N2CC3CC2C(=O)O3)c1OC (configuration not stated),i
COc1ccc(Cl)cc1NC(=O)CSc1cc(-c2nc(C3CC3)no2)ccn1,i
CCn1c(=O)c2c(nc3n2CCN3c2cc(OC)ccc2OC)n(C)c1=O,i
COCC(C)NC(=O)C12CCC(C)(C(=O)C1)C2(C)C (configuration not stated),i
Cc1cc(S(=O)(=O)NCc2nn(C)c(=O)c3ccccc23)c(Cl)cc1Cl,i
O=C1CC(c2nc(C3CC3)no2)CN1c1ccc(F)c(F)c1 (configuration not stated),i
O=C(Cn1cnc2c(c1=O)CCCC2)NCc1ccc(F)cc1,i
COCCn1c(C)cc(C(=O)CSc2nnc(-c3ccccc3)o2)c1C,i
O=C(/C=C/c1ccccc1Cl)NCCC(O)c1ccoc1 (configuration not stated),i
COc1ccccc1C(=O)NC1CCN(C(=O)c2cc(-c3ccc(F)cc3)n[nH]2)CC1,i
CCOC(=O)N1CCN(c2cnc3cc(S(=O)(=O)N4CCCCC4)ccc3n2)CC1,i
COCCN(Cc1ccoc1)S(=O)(=O)c1c(C)nn(C)c1C,i
O=C(CCCS(=O)(=O)c1ccc(Cl)cc1)N1CCC(Oc2nc3ccccc3s2)CC1,i
CCCCC/C=C\C/C=C\C/C=C\CCCCCCC(=O)O,i
Cc1cc(NC(=O)CCCSc2ccc(NC(=O)c3cccs3)nn2)no1,i
O=C(c1cc(-c2ccc3c(c2)OCO3)n[nH]1)N1CCN(CC(O)c2cccs2)CC1 (configuration not stated),i
Cc1nc(NC(=O)c2csc(-c3cnccn3)n2)sc1C(=O)N(C)C,i
Cc1nc2sccn2c1-c1nnc(SCC(=O)Nc2ccc(Cl)c(Cl)c2)n1C,i
O=C(Nc1ccc2c(c1)CCCN2C(=O)c1cccs1)c1cc(=O)c2ccccc2o1,i
C=C(C)Cn1c(=O)c2c(nc3n2CC(C)CN3c2ccccc2OC)n(C)c1=O (configuration not stated),i
Cc1noc(-c2ccc(NC(=O)c3ccc4nsnc4c3)cc2)n1,i
COc1ccccc1-c1cc2c(=O)n(Cc3ccc(N4CCCC4=O)cc3)ccn2n1,i
O=C(CCCn1nnc2ccccc2c1=O)Nc1cccc(Br)c1,i
O=c1[nH]c(=O)n(C2CC(O)C(CO)O2)cc1F (configuration not stated),i
COc1ncc(NC(=O)c2ccco2)cn1,i
COc1ccc(/C=C/C(=O)N2CCC(Oc3nc4c(F)cccc4s3)CC2)cc1OC,i
COc1ccc(OC)c(NC(=O)Cn2nc(-c3ccccc3)c3sc(N4CCCC4)nc3c2=O)c1,i
CC(C)c1nc(-c2ccc(N3CCN(C(=O)c4cc5ccccc5oc4=O)CC3)nc2)no1,i
CS(=O)(=O)N1CC(Oc2nc3c(C(F)(F)F)cccc3s2)C1,i
CC(=O)Nc1ccc(SCCCC(=O)NCc2ccccc2Cl)nn1,i
Cc1nnc(NC(=O)CN2CCc3nc(NC(=O)c4ccco4)sc3C2)s1,i
O=C(Nc1nc(-c2ccc3c(c2)OCO3)cs1)C1CCN(S(=O)(=O)c2cccs2)CC1,i
O=C(C1COc2ccccc2O1)N1CC(c2nc(Cc3ccccc3)no2)C1 (configuration not stated),i
Cn1c(=O)[nH]c(=O)c2c1nc1n2CCCN1Cc1ccco1,i
N#Cc1cnc2ccccc2c1Nc1ccc2c(c1)OCCO2,i
O=C(COc1ccc(Br)cc1)Nc1nonc1-c1ccc(Cl)cc1,i
O=C(Cn1c(=O)oc2ccccc21)NCC(O)c1ccc2c(c1)CCO2 (configuration not stated),i
Cc1noc(C2(NC(=O)C3COc4ccccc4O3)CCCCC2)n1 (configuration not stated),i
CCc1cccc(NC(=O)Cn2nc(N3CCCC(C)C3)c3ccccc3c2=O)c1 (configuration not stated),i
CCOC(=O)C1CCN(c2nc3ccccc3n3c(=O)n(CC(=O)NCCC(C)C)nc23)CC1,i
CN(CC(=O)NC1CCN(Cc2ccccc2)CC1)c1nc2c(Cl)cccc2s1,i
Cc1ccc(OCCCn2c(C3CC(=O)N(C(C)(C)C)C3)nc3ccccc32)cc1 (configuration not stated),i
Cc1cc(NC(=O)C(=O)N2CCC(Cc3ccccc3)CC2)c2ccccc2n1,i
COc1ccc(-c2nc(Cn3nnc(C(=O)Nc4cc(C)cc(C)c4)c3N)c(C)o2)cc1,i
CCCC(=O)c1cc2c(cc(Br)c3oc(C)c(C(=O)OCC)c32)oc1=O,i
CON(C)C(=O)c1nnn(-c2ccc(Cl)cc2)n1,i
COc1ccc(-c2csc(NC(=O)C3CCN(S(=O)(=O)c4ccc(Cl)cc4)CC3)n2)cc1,i
COc1ccc(N2CC(c3nc(-c4ccccc4C)no3)CC2=O)cc1OC (configuration not stated),i
Cc1nnsc1C(=O)N1CCN(Cc2nc3ccccc3[nH]2)CC1,i
COc1ccc(C(=O)Nc2ccc3c(c2)CCCN3C(=O)c2ccccc2)cc1,i
CN1CCC[C@H]1c1cccnc1,i
COc1ccc(C2(CNS(=O)(=O)c3cccs3)CCOCC2)cc1,i
Cc1ccc(NC(=O)C(=O)NCCc2ccc3c(c2)CCCN3C)cc1,i
COCCCN1COc2ccc3c(=O)c(Oc4ccccc4Br)coc3c2C1,i
Cc1ccc(-n2ncc3c(=O)[nH]c(-n4nc(C)cc4NC(=O)Cc4cccs4)nc32)cc1,i
O=C(Nc1cnc(N2CCOCC2)nc1)c1ccco1,i
COc1ccc(/C=C2\Oc3cc(OC(=O)c4cccs4)ccc3C2=O)c(OC)c1OC,i
Cc1ccc(N2CCCS2(=O)=O)cc1NC(=O)c1ccccc1Cl,i
N#CC(=C(O)c1ccncc1)c1nc2ccccc2[nH]1,i
O=S(=O)(c1cccc(Cl)c1)N1CC(c2nc(Cc3cccs3)no2)C1,i
CCn1cc(C(=O)N2CCCC(c3nnc(C)s3)C2)c(=O)c2ccc(C)nc21 (configuration not stated),i

# Continued.
SMILES,GIRK2 activ
COc1ccc(Br)c(C(=O)N2CCC(Oc3ccccn3)CC2)c1,i
COc1ccccc1Nc1nc(N2CCCC2)nc(N2CCCC2)n1,i
CCc1nc(N2CCC(C)CC2)c2oc3ccccc3c2n1,i
COCC(C)(O)CNS(=O)(=O)C1CC1 (configuration not stated),i
Cc1ccccc1-c1cc2c(=O)n(Cc3ccc(N4CCCC4=O)cc3)ccn2n1,i
O=C(NCc1cccc(C(F)(F)F)c1)C1CCN(c2cc(Oc3ccccc3)ncn2)CC1,i
Cc1cc(O)c2c(c1)OC(C)(C1CCC(=O)O1)C(O)C2=O (configuration not stated),i
CC(=O)NC1C(=O)N(CCOc2cccc(C)c2)c2ccc(Cl)cc21 (configuration not stated),i
CN(C)CCCNC(=O)C(=O)c1cn(CC(=O)N2CCOCC2)c2ccccc12,i
COc1ccc(CC(C)(O)CNC(=O)C23CC4CC(CC(C4)C2)C3)cc1 (configuration not stated),i
O=C(Cn1cnc2ccccc2c1=O)N1CCC(Oc2ncccc2Cl)CC1,i
O=S1(=O)N=C(c2ccc(Br)cc2)Nc2ccc(S(=O)(=O)N3CCOCC3)cc21,i
COC(=O)c1ccc(NC(=O)C2CCCN(c3ccc(-c4ccc(F)cc4)nn3)C2)cc1 (configuration not stated),i
Cc1ccc(S(=O)(=O)N(C)c2c(C)ccc(S(=O)(=O)N(C)CCCC(=O)O)c2C)cc1,i
Cc1ccc(-n2nnc3c(N4CCN(C(=O)CC(C)C)CC4)ncnc32)cc1,i
COc1cccc(NC(=O)Nc2nc3ccc4sc(C)nc4c3s2)c1,i
Cc1cc(NC(=O)C2CCN(C(=O)c3cc(-c4ccccc4)on3)CC2)no1,i
O=C(CN1CCN(C(=O)Nc2ccc3c(c2)OCO3)CC1)c1cccs1,i
CCc1ccc(CNC(=O)CCn2cnc3c([nH]c4ccc(C)cc43)c2=O)cc1,i
CCOc1ccc(-c2ccc(=O)n(CCNS(=O)(=O)c3cc(OC)ccc3OC)n2)cc1,i
CC(=O)c1ccc(NC(=O)Cn2cccc(-c3nc(-c4ccc(F)cc4)no3)c2=O)cc1,i
O=C(c1ccc(F)cc1Cl)N1CCN(CC(O)c2ccco2)CC1 (configuration not stated),i
O=S1(=O)N=C(Cc2ccccc2)Nc2ccc(S(=O)(=O)N3CCOCC3)cc21,i
O=C(Cc1cc(=O)[nH]c(SCc2ccccc2F)n1)NCCc1c[nH]c2ccccc12,i
CCc1nc2sc(C(c3cccc(C(F)(F)F)c3)N3CCN(CC)CC3)c(O)n2n1 (configuration not stated),i
O=C1CCSCC(C(=O)NC2CC2)N1 (configuration not stated),i
CCN1C(=O)c2cc(NS(=O)(=O)c3ccc(NC(C)=O)cc3C)ccc2Oc2ccccc21,i
Cc1ccnc(Nc2cc(N3CCN(C(=O)c4ccco4)CC3)nc(C)n2)c1,i
Cc1nn(C2CCS(=O)(=O)C2)c(C)c1N1CCN(C(=O)Cc2c(F)cccc2Cl)CC1 (configuration not stated),i
O=c1[nH]c2cc(-c3nc(-c4ccc5c(c4)OCO5)no3)ccc2c(=O)n1Cc1ccc2c(c1)OCO2,i
O=C(c1ccc(F)cc1)N1CCN(c2ccc3nnc(C4CC4)n3n2)CC1,i
O=C(CCS(=O)(=O)c1ccccc1)N1CCCC(c2nnc(-c3ccccc3F)s2)C1 (configuration not stated),i
CC(C)CNc1nc2c(c(=O)n(C)c(=O)n2C)n1CC(O)COc1ccccc1Cl (configuration not stated),i
COC(=O)c1ccc(CSc2cc(-c3ccccc3)ncn2)o1,i
CC(=O)N1CCN(c2nc(Nc3ccc(C)cc3)c3n[nH]nc3n2)CC1,i
CC(=O)Nc1ccc(NC(=O)c2nnn(-c3ccc(C)c(C)c3)c2C)cc1,i
O=C(c1ccc2[nH]ccc2c1)N1CC(c2nc(C3CC3)no2)C1,i
COc1ccccc1C1(C(=O)NCc2ccc3c(c2)OCO3)CCOCC1,i
O=c1cccnn1CCN1CCN(S(=O)(=O)Cc2cc(F)ccc2F)CC1,i
CN(C)CCCn1cc(C2=C(c3c[nH]c4ccccc34)C(=O)NC2=O)c2ccccc21,i
COc1ccccc1-c1coc2c3c(ccc2c1=O)OCN(CCN1CCOCC1)C3,i
Cc1ccccc1C(=O)N1CCN(c2oc(/C=C/c3ccccc3Cl)nc2C#N)CC1,i
O=C(c1ccc(F)c(F)c1)N1CCC(Oc2ccccn2)CC1,i
O=C(CN1CCN(S(=O)(=O)c2ccc3c(c2)OCCO3)CC1)c1cccs1,i
CCOc1ccc(-c2csc(-n3nc(C)cc3NC(=O)c3c(F)cccc3F)n2)cc1,i
COc1ccccc1-n1nnc(C(=O)N2CC=C(c3ccccc3)CC2)c1-c1ccccn1,i
O=S(=O)(c1ccc2c(c1)OCCO2)N1CCN(c2cc(N3CCCC3)ncn2)CC1,i
CC(C)c1cccc(NC(=O)Cn2cc(-c3nc(-c4cccs4)no3)ccc2=O)c1,i
Cc1c(C)n2c3c(=O)n(Cc4ccccc4)c(=O)n(C)c3nc2n1-c1ccccc1O,i
COc1cc(OC)cc(C(=O)Nc2nnc(-c3ccc(OC)cc3OC)o2)c1,i
O=C(c1ccc(F)cc1F)N1CCCC(c2nnc(-c3cccs3)o2)C1 (configuration not stated),i
Cc1cccc(N2CCN(C(=O)Cc3cc(=O)[nH]c(SCc4ccccc4)n3)CC2)c1,i
COc1cc2[nH]c3c(=O)n(CCC(=O)Nc4cc(C)ccc4C)cnc3c2cc1OC,i

# Among those listed so far, 13 have a thiophene ring, fused or not.
SMILES,GIRK2 activ
CCCCn1c(SCC(=O)Nc2ccccc2Cl)nc2c(sc3ncccc32)c1=O,i
Cc1cc(NC(=O)CCCSc2ccc(NC(=O)c3cccs3)nn2)no1,i
O=C(c1cc(-c2ccc3c(c2)OCO3)n[nH]1)N1CCN(CC(O)c2cccs2)CC1 (configuration not stated),i
O=C(Nc1ccc2c(c1)CCCN2C(=O)c1cccs1)c1cc(=O)c2ccccc2o1,i
O=C(Nc1nc(-c2ccc3c(c2)OCO3)cs1)C1CCN(S(=O)(=O)c2cccs2)CC1,i
COc1ccc(C2(CNS(=O)(=O)c3cccs3)CCOCC2)cc1,i
Cc1ccc(-n2ncc3c(=O)[nH]c(-n4nc(C)cc4NC(=O)Cc4cccs4)nc32)cc1,i
COc1ccc(/C=C2\Oc3cc(OC(=O)c4cccs4)ccc3C2=O)c(OC)c1OC,i
O=S(=O)(c1cccc(Cl)c1)N1CC(c2nc(Cc3cccs3)no2)C1,i
O=C(CN1CCN(C(=O)Nc2ccc3c(c2)OCO3)CC1)c1cccs1,i
O=C(CN1CCN(S(=O)(=O)c2ccc3c(c2)OCCO3)CC1)c1cccs1,i
CC(C)c1cccc(NC(=O)Cn2cc(-c3nc(-c4cccs4)no3)ccc2=O)c1,i
O=C(c1ccc(F)cc1F)N1CCCC(c2nnc(-c3cccs3)o2)C1 (configuration not stated),i

# The list is partial (hit frequency here may not be typical).
